Source: PubChem
Biofilm kill mix: clotrimazole potentiators killing C. albicans biofilm, primary screen, 4-compound mixtures. AID 1242, 2008. C. albicans biofilm persisters + clotrimazole, fluorescence viability; primary screen in compound mixtures of four per well. 120,000 compounds, 0.02% hits. inhibition, % at 7.6 µM;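 active = inhibition above 30.3% in the primary screen of four-compound pools, then above 30% when the compound was retested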;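 note: compounds exposed to preformed 24 h biofilms for 48 h; the number belongs to the whole pool; some results filed as inactive read as strong as hits; inactives centre near 12; 0% = biofilm with clotrimazole alone and 100% = kill control; retested singly at about 60 µM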
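Incubation: 24 h biofilm formation, then 48 h compound exposure, 37 °C | Material: C. albicans biofilms | Buffer or medium: RPMI/MOPS medium, pH 7.0 | Measured by: 2-h Alamar Blue fluorescence, 535/590 nm excitation/emission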
* marks the source's active call; other numbers are inactive results.

For CC(C)CC(C(=O)N1CCOCC1)N1Cc2ccccc2C1=O (stereo not drawn) the results were Biofilm kill mix 17.
For CN(C)c1cccc(C(=O)OCC(=O)Nc2ccccc2Sc2ccccc2)c1 the results were Biofilm kill mix 8.
COc1cc(NC(=O)CN2CCC(C(N)=O)(N3CCCCC3)CC2)c(OC)cc1Cl was read as Biofilm kill mix 7.
Screening O=c1cc(-c2ccccc2)oc2cc(OCc3ccccc3)cc(O)c12 returned Biofilm kill mix 14.
For CSc1nc2ncc(C#N)cn2n1 the results were Biofilm kill mix 11.
NC(=S)Nc1cccc(F)c1 was read as Biofilm kill mix 21.
CC(NC(=O)CCc1nnc(C2(c3ccc(Cl)cc3)CCC2)o1)C1CC1 (stereo not drawn) was read as Biofilm kill mix -1.
Screening CC(C(=O)N1CCN(Cc2ccc3c(c2)OCO3)CC1)c1ccc([N+](=O)[O-])cc1 (stereo not drawn) returned Biofilm kill mix 10.
Screening Fc1cccc(F)c1/C=N/Nc1ccccn1 returned Biofilm kill mix 6.
COc1ccc(C(=O)Nc2cc(C(=O)O)cc(C(=O)O)c2)cc1Cl was read as Biofilm kill mix 9.
Screening CCOC(=O)Cn1c(=NC(=O)c2nc3ccccc3s2)sc2cc(S(N)(=O)=O)ccc21 returned Biofilm kill mix 16.
Screening CN(C)S(=O)(=O)c1cccc(NC(=O)COC(=O)/C=C/c2cccs2)c1 returned Biofilm kill mix 9.
CCC(=O)Nc1nc2ccc([N+](=O)[O-])cc2s1 was read as Biofilm kill mix 18.
Nc1ccc(-n2nncc2-c2ccccc2)cc1 was read as Biofilm kill mix 19.
COC(=O)c1c(-c2ccc(C)cc2)csc1NC(=S)NC(=O)c1ccc(F)cc1 was read as Biofilm kill mix 10.
Cc1ccccc1Nc1nc(N)nc(CSc2ccccc2)n1 was read as Biofilm kill mix 14.
For CCCCn1c(SCC(=O)Nc2cc(C)on2)nnc1-c1cccs1 the results were Biofilm kill mix 1.
`Cc1ccc(SCCC(=O)N2CCC(C)CC2)cc1` gave Biofilm kill mix 10.
Screening Cn1c(Cc2ccccc2)nnc1SCC(=O)NCCc1ccccc1 returned Biofilm kill mix 4.
`Clc1ccc(-c2cccs2)nn1` gave Biofilm kill mix 12.
Screening C=CCc1c(N(CC)CC)nc(C)[nH]c1=O returned Biofilm kill mix 15.
For COc1ccc(NC(C#N)c2ccccc2OCc2ccccc2)cc1 (stereo not drawn) the results were Biofilm kill mix 24.
Screening CC(C)(C)N/N=C1\CC(c2ccccc2)Oc2ccccc21 (stereo not drawn) returned Biofilm kill mix 16.
For CCCc1c(C(=O)Nc2ccc(F)cc2)cnn1-c1ccccc1 the results were Biofilm kill mix 2.
Cc1cc(C(=O)NCCc2ccc(S(N)(=O)=O)cc2)no1 was read as Biofilm kill mix 9.
COc1ccc(/C=N/NC(=O)c2c(C)n(C)c3ccc(OC)cc23)c(OC)c1 was read as Biofilm kill mix 1.
`Cn1ncc(Cl)c1C(=O)N/N=C/c1cc2c(cc1[N+](=O)[O-])OCO2` gave Biofilm kill mix -2.
Screening Cc1ccc(S(=O)(=O)c2cc(O)ccc2O)cc1C returned Biofilm kill mix 9.
`Cc1nn(C)c(=O)c(N)c1-c1cc(-c2ccc(Cl)c(Cl)c2)n[nH]1` gave Biofilm kill mix 20.
For CCn1c(SCC(=O)Nc2ccc(OC)cc2)nc2nc3c(cc2c1=O)CCCC3 the results were Biofilm kill mix 16.
For CSCCNC(=O)Nc1c(-c2c(Cl)cccc2Cl)noc1C the results were Biofilm kill mix 16.
For CC(=O)Nc1ccc(S(=O)(=O)NCC(=O)OCC(=O)NC(=O)C2CCCCC2)cc1 the results were Biofilm kill mix 15.
Cc1ccc(S(=O)(=O)NC(C(=O)O)c2ccccc2)cc1 (stereo not drawn) was read as Biofilm kill mix 14.
For CC(C)N(Cc1nccn1C)C(=O)c1cc(COc2ccc3ncccc3c2)on1 the results were Biofilm kill mix 6.
CCC1CSC(Nc2ccc(C(=O)/C=C/c3cccc(C)c3)cc2)=N1 (stereo not drawn) was read as Biofilm kill mix 12.
For Cc1ccc(NC(=O)CC2C(=O)N(Cc3ccccc3)C(=S)N2NC(=O)c2cccc(F)c2)c(C)c1 (stereo not drawn) the results were Biofilm kill mix 12.
`Cc1ccc(C(=O)NC(=S)Nc2c(C)ccc3nsnc23)cc1` gave Biofilm kill mix 3.
CC(=O)NCCNc1ccc([N+](=O)[O-])cn1 was read as Biofilm kill mix 8.
O=C(Cc1ccccc1)NN1C(=O)/C(=C/c2ccc(C(=O)O)cc2)SC1=S was read as Biofilm kill mix 0.
Screening Cc1cc(C)cc(NC(=O)C(NCCN2CCOCC2)c2ccccc2)c1 (stereo not drawn) returned Biofilm kill mix 7.
`O=C(NC1CCN(Cc2ccccc2)CC1)c1ccc(Oc2cc(Cl)cc(Cl)c2)o1` gave Biofilm kill mix 20.
`COc1ccccc1-c1c(C)[nH]n2c(=O)c(Cc3ccccc3)c(C)nc12` gave Biofilm kill mix 11.
For CCCCC(CCC(=O)NNC(=O)Cc1ccccc1)C(=O)O (stereo not drawn) the results were Biofilm kill mix 0.
CC1CC(C)CN(C(=O)c2ccc(C#N)cc2)C1 (stereo not drawn) was read as Biofilm kill mix 12.
`CN(c1ccccc1)S(=O)(=O)c1cccc(NC(=O)CCN2C(=O)C3CCCCC3C2=O)c1` (stereo not drawn) gave Biofilm kill mix 2.
`COc1ccccc1NS(=O)(=O)c1cc(NC(=O)C2CC2)ccc1N1CCOCC1` gave Biofilm kill mix 11.
Screening O=C(O)CC(c1cccc(C(F)(F)F)c1)N1CCS(=O)(=O)CC1 (stereo not drawn) returned Biofilm kill mix 9.
Screening CC(C)=CCN1CCN(CC#Cc2ccccc2)CC1CCO (stereo not drawn) returned Biofilm kill mix 3.
For CC1=C(C(=O)c2ccccc2)C(c2ccc(OC(F)F)cc2)NC(=S)N1 (stereo not drawn) the results were Biofilm kill mix 3.
COc1ccc(CCN2C(=O)NC(NC(=O)CC(C)C)(C(F)(F)F)C2=O)cc1OC (stereo not drawn) was read as Biofilm kill mix 12.
For CCOc1ccc(N(Cc2ccc(OC)c(OC)c2)C(=O)c2ccco2)cc1 the results were Biofilm kill mix 7.
CCN(CC)S(=O)(=O)c1ccc(NN=C2CCN(C)CC2)c([N+](=O)[O-])c1 was read as Biofilm kill mix 14.
For c1ccc(Cc2cc[n+](Cc3ccccn3)cc2)cc1 the results were Biofilm kill mix 13.
Screening CC(C)C(=O)N1CCN(c2ccc([N+](=O)[O-])cc2Cl)CC1 returned Biofilm kill mix 13.
`COc1ccc(Nc2nc3ccc(C)cn3c(=O)c2/C=N/O)cc1` gave Biofilm kill mix 12.
Screening CC(=O)NC(CC(=O)Nc1nccs1)c1ccccc1 (stereo not drawn) returned Biofilm kill mix 8.
Cc1cc2cc(CCNC(=O)c3cccs3)c(=O)[nH]c2cc1C was read as Biofilm kill mix 14.
CCCn1c(=S)[nH]c2ccc(C(F)(F)F)cc21 was read as Biofilm kill mix 0.
For CCOC(=O)CSc1nc(-c2ccccn2)ncc1OC the results were Biofilm kill mix 18.
`CCOC(=O)C1=C(C)NC(=O)CC1c1cc(OC)c(OC)cc1Br` (stereo not drawn) gave Biofilm kill mix 20.
Screening CC(=O)c1ccc(NC(=O)C(=O)c2cn(CC(=O)N3CCCCC3)c3ccccc23)cc1 returned Biofilm kill mix -3.
`O=[N+]([O-])c1cccc(Cl)c1CSc1ccccn1` gave Biofilm kill mix 6.
For CCn1nc(C)cc1C(=O)N1CCCC(C(=O)c2ccc3ccccc3c2)C1 (stereo not drawn) the results were Biofilm kill mix 8.
Screening NS(=O)(=O)c1ccc(NC(=O)c2cc(Cl)ccc2Cl)cc1 returned Biofilm kill mix 1.
`CCOc1ccc(NS(=O)(=O)c2ccc(C(=O)N3CCN(c4ncccn4)CC3)cc2)cc1` gave Biofilm kill mix 3.
For COc1ccc(N(CCC#N)C(=O)/C(C#N)=C\c2cccs2)cc1 the results were Biofilm kill mix 17.
For COc1ccc(N2C(=O)[C@H]3[C@@H](C2=O)C2c4ccccc4C=NN2[C@H]3C(=O)C(C)(C)C)cc1 (stereo partly drawn) the results were Biofilm kill mix 13.
CC(=O)Nc1nnc(CCS(=O)(=O)c2ccc(C)c(C)c2)s1 was read as Biofilm kill mix 8.
COC(=O)C1CCN(CC(=O)Nc2ccccc2Sc2ccccc2)CC1 was read as Biofilm kill mix 2.
C=CCOc1c(Br)cc(/C=N/n2c(CC)n[nH]c2=S)cc1Br was read as Biofilm kill mix 8.
Screening COc1ccccc1-n1nc(C)cc1N returned Biofilm kill mix 6.
Screening Cn1c(NC(=O)c2ccc(F)cc2)c(-c2ccccn2)c(=O)c2ccccc21 returned Biofilm kill mix 8.
Screening CC(=O)Nc1ccc(CN2CCN(Cc3ccc(C)cc3)C(CCO)C2)cc1 (stereo not drawn) returned Biofilm kill mix 18.
Screening O=c1[nH]c(=S)[nH]c2[nH]c(=S)[nH]c12 returned Biofilm kill mix -1.
`CCOc1ccccc1NC(=S)Nc1ccc2cn[nH]c2c1` gave Biofilm kill mix 14.
For NC1=NC2(CCCCC2)N=C(Nc2ccc(Br)cc2)N1 the results were Biofilm kill mix 18.
Screening CCc1cccc(CC)c1NC(=O)C(NS(=O)(=O)c1cccs1)c1ccccc1 (stereo not drawn) returned Biofilm kill mix 23.
For CCN1CCN(CCCN(Cc2ccco2)C(=S)Nc2ccc(Cl)c(C)c2)CC1 the results were Biofilm kill mix 16.
`CCOC(=O)C1(Cc2ccccc2C)CCCN(C(=O)CCc2cccnc2)C1` (stereo not drawn) gave Biofilm kill mix 12.
CCOc1ccccc1OCCN1CCC(Cc2ccccc2)CC1 was read as Biofilm kill mix 6.

A draw from above in order of number of heavy atoms, ascending:
Screening O=c1[nH]c(=S)[nH]c2[nH]c(=S)[nH]c12 returned Biofilm kill mix -1.
Screening COc1ccccc1-n1nc(C)cc1N returned Biofilm kill mix 6.
For NC1=NC2(CCCCC2)N=C(Nc2ccc(Br)cc2)N1 the results were Biofilm kill mix 18.
Screening NS(=O)(=O)c1ccc(NC(=O)c2cc(Cl)ccc2Cl)cc1 returned Biofilm kill mix 1.
CC(=O)Nc1nnc(CCS(=O)(=O)c2ccc(C)c(C)c2)s1 was read as Biofilm kill mix 8.
For COc1ccc(N(CCC#N)C(=O)/C(C#N)=C\c2cccs2)cc1 the results were Biofilm kill mix 17.
CCOc1ccccc1OCCN1CCC(Cc2ccccc2)CC1 was read as Biofilm kill mix 6.
COC(=O)C1CCN(CC(=O)Nc2ccccc2Sc2ccccc2)CC1 was read as Biofilm kill mix 2.
Screening Cn1c(NC(=O)c2ccc(F)cc2)c(-c2ccccn2)c(=O)c2ccccc21 returned Biofilm kill mix 8.
`CCOC(=O)C1(Cc2ccccc2C)CCCN(C(=O)CCc2cccnc2)C1` (stereo not drawn) gave Biofilm kill mix 12.
For COc1ccc(N2C(=O)[C@H]3[C@@H](C2=O)C2c4ccccc4C=NN2[C@H]3C(=O)C(C)(C)C)cc1 (stereo partly drawn) the results were Biofilm kill mix 13.
`CCOc1ccc(NS(=O)(=O)c2ccc(C(=O)N3CCN(c4ncccn4)CC3)cc2)cc1` gave Biofilm kill mix 3.

Additional entries
Screening CCNC(=S)/C(=C(/[O-])c1ccc([N+](=O)[O-])cc1)[n+]1ccccc1 returned Biofilm kill mix 12.
COc1ccc(OC)c(S(=O)(=O)N2CCCC(C)C2)c1 (stereo not drawn) was read as Biofilm kill mix 6.
`CC(C)(C)c1ccc(S(=O)(=O)Nc2cccc(C3OCCCO3)c2)cc1` gave Biofilm kill mix 5.
CCOC(=O)C1CNc2cc(S(=O)(=O)CC)ccc2O1 (stereo not drawn) was read as Biofilm kill mix 13.
`COc1cc(CN2C(=S)NC(C)(C)CC2(C)O)cc(OC)c1` (stereo not drawn) gave Biofilm kill mix 4.
For CC(C)[C@H](NC(=O)OCc1ccccc1)C(=O)OCC(=O)Nc1c(F)cccc1F the results were Biofilm kill mix 16.
For O=C(Nc1ccc(Cl)cc1)N1CCC(CO)(Cc2ccccc2)CC1 the results were Biofilm kill mix 14.
Screening CCCCNC(=O)N1CCc2ccccc2C1 returned Biofilm kill mix 18.
For O=S(=O)(Nc1ccccc1N1CCCCC1)c1cccs1 the results were Biofilm kill mix 13.
Screening Cc1cc(/C=C(\C#N)C(=O)NC2CCCCCC2)c(C)[nH]1 returned Biofilm kill mix 25.
`Cc1ccc(C(=O)NCC(=O)OCC(=O)Nc2ccc(Cl)cc2C(F)(F)F)cc1C` gave Biofilm kill mix 7.
`Cc1ccc(N2CC(=O)N(c3ccc(C)cc3)CC2=O)cc1` gave Biofilm kill mix 19.
O=C(c1cc([N+](=O)[O-])cc([N+](=O)[O-])c1)N1CCN(C(=O)c2ccco2)CC1 was read as Biofilm kill mix 24.
`CCCN(CCC)CC(=O)N1CC(=O)Nc2ccccc21` gave Biofilm kill mix 14.
Cc1ccc(C(=O)NCC(=O)OCC(=O)NCC(F)(F)F)cc1 was read as Biofilm kill mix 6.
Screening CC(C)N(CCCNC(=O)c1ccc(N2CCCC2=O)cc1)Cc1ccccc1 returned Biofilm kill mix 29.
Screening C=CCN(CC=C)CCOc1cccc2ccccc12 returned Biofilm kill mix 2.
For Cc1ccc(NC(=O)C(OC(=O)c2ccccc2Cl)c2ccccc2)cc1Cl (stereo not drawn) the results were Biofilm kill mix 14.
For COC(=O)c1ccccc1NC(=S)N(Cc1ccc2c(c1)OCO2)Cc1cc2cc(OC)ccc2[nH]c1=O the results were Biofilm kill mix 17.
For O=[N+]([O-])c1ccccc1/C=N/NC1=NS(=O)(=O)c2ccccc21 the results were Biofilm kill mix 13.
CC(O)CN(C)CC/C=C1/c2ccccc2CSc2ccccc21 (stereo not drawn) was read as Biofilm kill mix 11.
Nc1nnc(Cc2ccc(F)cc2)s1 was read as Biofilm kill mix 20.

Only part of the results is shown; rates above refer to the full screens.
